# Polio RdRp inh: poliovirus RdRp elongation inhibitors, primary screen, biochemical, fluorescence polarization, total intensity. Genome polyprotein (Poliovirus type 1 (strain Mahoney)), P03300. poliovirus polymerase elongation; stronger effect = lower value. % elongation, % (compound at 16.7 µg/mL). 150,000 compounds, 0.66% hits; in the data active means % elongation below about 90%; further: some results filed as inactive read as strong as hits
# Target sequence (P03300 1749-2209 limits assumed): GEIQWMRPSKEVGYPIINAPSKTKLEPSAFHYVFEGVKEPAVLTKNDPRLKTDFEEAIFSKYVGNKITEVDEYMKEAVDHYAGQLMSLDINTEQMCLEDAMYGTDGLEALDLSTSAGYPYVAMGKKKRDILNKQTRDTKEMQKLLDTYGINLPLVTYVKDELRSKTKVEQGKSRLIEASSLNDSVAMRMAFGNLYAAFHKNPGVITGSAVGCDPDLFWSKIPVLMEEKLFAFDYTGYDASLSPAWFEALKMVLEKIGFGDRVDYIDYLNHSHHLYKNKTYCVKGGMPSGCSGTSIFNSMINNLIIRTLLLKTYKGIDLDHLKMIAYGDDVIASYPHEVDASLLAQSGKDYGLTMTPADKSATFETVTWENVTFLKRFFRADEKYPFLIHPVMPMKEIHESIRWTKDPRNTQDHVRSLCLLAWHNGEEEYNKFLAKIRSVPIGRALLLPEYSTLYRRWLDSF
# Polio RdRp inh intensity: further read-out of Polio RdRp inh, marked with its call; % elongation; measured here: total intensity read-out; formula for this scale not given here;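 total fluorescence in place of polarization; lower means less elongation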
# * hit, by the source's call. An excerpt, so the mix of outcomes need not match the whole.
Compound	Polio RdRp inh	Polio RdRp inh intensity
O=C1Nc2ccccc2Oc2cc(Oc3ccc(Cl)cc3)ccc21	99	96
O=C(CSc1nc2c([nH]c3ccccc32)c(=O)n1-c1ccc(F)cc1)NCc1ccc(F)cc1	114	107
CC(=O)c1cccc(NC(=O)C2=CC(c3ccco3)=NS(=O)(=O)N2C)c1	112	117
COc1ccc(-c2cn3c(n2)sc2cc(C(=O)N4CCCCC4)ccc23)cc1	106	112
Cc1ccccc1CNC(=O)c1ccc(-n2c(C)cc3c2CCCC3)cc1	108	94
CCN(CC)CCNC(=O)Cn1ncc2c([nH]c3ccccc32)c1=O	110	103
COc1ccc(C(=O)Nc2ccc3c(c2)N(C2CCCC2)C(=O)c2ccccc2S3)cc1OC	106	106
Cc1cccc(OCc2nc(CC(=O)Nc3ccc(C)cc3C)cs2)c1	108	105
Cc1ccc2c(c1)NC(c1cccnc1)=NC(c1ccc(F)cc1)=N2	103	107
CC(C)OCCCn1c(SCc2ccccc2C#N)nc2c(sc3ccccc32)c1=O	101	103
CC(=O)c1ccc(NC(=O)C2CCCN(S(=O)(=O)c3cn(C)cn3)C2)cc1 (stereo not given)	116	118
CN(C)c1ccc(C2C=C(c3ccccc3)Nc3nnnn32)cc1 (stereo not given)	112	120
COc1cc(OC)c(NC(=O)N2CCCn3nc(C)cc32)cc1Cl	110	111
O=C(CCCn1c(=O)c2sccc2n(Cc2cccc(Cl)c2)c1=O)NCc1ccc2c(c1)OCO2	108	110
COc1cc2c(C(=O)N(C)c3cccc(C(F)(F)F)c3)cn(CC(C)C)c(=O)c2cc1OC	103	101
COc1ccc(-c2nn3c(=O)cc(CN4CCN(C(=O)c5ccc(OC)c(OC)c5)CC4)nc3s2)cc1	112	113
CC(=O)c1ccc(NC(=O)Cn2ncc3c(C)n(Cc4ccc(F)cc4)c(C)c3c2=O)cc1	105	108
Cc1ccc(Sc2c(C)nn(-c3ccccc3)c2OC(=O)C(C)(C)C)cc1	107	110
CCOc1ccccc1NC(=O)c1cc(S(=O)(=O)N2CCOCC2)cn1C	98	102
Cc1cccc(NC(=O)Nc2nnc(N(C)Cc3ccccc3)s2)c1	102	96

# Random excerpt: three entries already listed, in no set order.
Compound	Polio RdRp inh	Polio RdRp inh intensity
COc1ccc(C(=O)Nc2ccc3c(c2)N(C2CCCC2)C(=O)c2ccccc2S3)cc1OC	106	106
O=C(CCCn1c(=O)c2sccc2n(Cc2cccc(Cl)c2)c1=O)NCc1ccc2c(c1)OCO2	108	110
CC(=O)c1cccc(NC(=O)C2=CC(c3ccco3)=NS(=O)(=O)N2C)c1	112	117

# (list continues)
Compound	Polio RdRp inh	Polio RdRp inh intensity
CCc1ccc2nc(N(CCN(CC)CC)C(=O)c3cccs3)sc2c1	106	106
CN(C)S(=O)(=O)c1ccc(C(=O)NCCSc2c(-c3ccc(Br)cc3)[nH]c3ccccc23)cc1	109	110
Cc1ccc(N2CC(C)Cn3c2nc2c3c(=O)n(Cc3cccc(Cl)c3)c(=O)n2C)cc1 (stereo not given)	108	117
CCC(Sc1nnc(-c2ccc(OC)cc2)c(-c2ccc(OC)cc2)n1)C(=O)Nc1cccc(OC)c1 (stereo not given)	117	126
COc1cc(Cl)c(C)cc1NC(=O)CN1c2ccccc2S(=O)(=O)c2ccccc21	100	96
COc1cccc2c1cc1c(=O)n(CC(=O)NCCCN3CCN(C)CC3)nc(C)n12	107	110
CCc1ccccc1N1CC(c2nc3ccccc3n2Cc2cccc(C)c2)CC1=O (stereo not given)	105	110
COCCCNc1nc2c(-c3cccc(Br)c3)nnn2c2ccccc12	104	106
CCCCN1C(=O)c2[nH]nc(-c3ccccc3O)c2C1c1ccc(C(C)(C)C)cc1 (stereo not given)	108	98
O=C(COc1ccccc1[N+](=O)[O-])N1CCN(CCc2ccncc2)CC1	103	107
COc1ccc(CNS(=O)(=O)c2ccc(-c3cnc(C4CC4)o3)cc2)cc1	112	110
O=C(NC1CC(=O)N(c2cccc(F)c2)C1)C(c1ccccc1)c1ccccc1 (stereo not given)	111	103
CCOC(=O)N1CCc2c(sc3c2c(=O)n(Cc2ccccc2)c(=O)n3Cc2cccc(C)c2)C1	108	108
CC(=O)Nc1cccc(C(=O)NCc2ccc3c(c2)CCN3C(=O)c2ccc(F)cc2)c1	113	114
CCc1nnc(NC(=O)c2nc(SCc3ccccc3F)ncc2Cl)s1	99	108
Cc1ccc(Nc2sc(C(=O)c3ccccc3)c(N)c2C(=O)Nc2ccc(Cl)cc2)cc1	107	107
Cc1cccc(-n2c(=O)c3ccccc3n(Cc3ccccc3C#N)c2=O)c1	105	105
O=C1CCc2cc(S(=O)(=O)NC(C(=O)Nc3cccc(F)c3)c3ccccc3)ccc2N1 (stereo not given)	113	113
Cc1cc(-c2ccc(S(=O)(=O)N3CCN(c4ccc(Cl)cc4)CC3)s2)on1	108	104
CCCc1cc(N2CCN(c3ccc(OC)cc3)CC2)n2cnnc2n1	106	107

# Next part; the last five above are carried over.
Compound	Polio RdRp inh	Polio RdRp inh intensity
Cc1ccc(Nc2sc(C(=O)c3ccccc3)c(N)c2C(=O)Nc2ccc(Cl)cc2)cc1	107	107
Cc1cccc(-n2c(=O)c3ccccc3n(Cc3ccccc3C#N)c2=O)c1	105	105
O=C1CCc2cc(S(=O)(=O)NC(C(=O)Nc3cccc(F)c3)c3ccccc3)ccc2N1 (stereo not given)	113	113
Cc1cc(-c2ccc(S(=O)(=O)N3CCN(c4ccc(Cl)cc4)CC3)s2)on1	108	104
CCCc1cc(N2CCN(c3ccc(OC)cc3)CC2)n2cnnc2n1	106	107
CCOc1ccccc1NS(=O)(=O)c1c(C)nc2sccn2c1=O	111	115
CN(Cc1ccccc1)C(=O)C1CCC(CNS(=O)(=O)c2ccc3c(c2)CCCC(=O)N3)CC1 (stereo not given)	108	95
Cc1nn2c(=O)cc(COC(=O)CNC(=O)c3ccc(F)cc3)nc2s1	102	110
Cc1cc(C)cc(NC(=O)CNS(=O)(=O)c2ccc3nc(C)sc3c2)c1	106	107
Cc1ccc(S(=O)(=O)N(CC(=O)N2CCc3ccccc3C2)c2ccc(C)c(C)c2)cc1	110	110
COc1ccc(CNC(=O)CCc2c(C)nc3c(c(C)nn3-c3ccccc3)c2C)cc1	111	112
COc1ccc(NC(=O)[C@H]2O[C@@H]3OC(C)(C)O[C@@H]3[C@H]3OC(C)(C)O[C@H]32)c(OC)c1	108	111
COc1ccc(S(=O)(=O)N2CCN(c3ccccc3OC)CC2)cc1-c1noc(C)n1	105	89
Cc1ccc(C)c(CN2C(=O)c3ccccc3S(=O)(=O)c3ccc(C(=O)N4CCCCCC4)cc32)c1	100	102
CC(=O)c1cc2c(cc1N/C(=N/S(=O)(=O)c1ccc(Br)cc1)c1ccccc1)OCO2	103	105
COc1ccc(C2c3c(n(C)c4ccccc34)C(=O)N2CC(=O)Nc2ccc(Cl)cc2)cc1 (stereo not given)	96	94
COc1cc(C(=O)Nc2ccc(OCc3cc(=O)n4cc(C)sc4n3)cc2)cc(OC)c1OC	99	102
CCN(c1ccccc1)S(=O)(=O)c1nnc(NC(=O)C(C)(C)C)s1	107	109
Cc1ccc(Cn2c(CNC(=O)c3cccc(C)c3)nc3ccccc32)cc1	109	115
Cc1ccc(S(=O)(=O)c2[nH]c(-c3ccccc3)nc2SC(C)C(=O)O)cc1 (stereo not given)	101	101
Cc1ccc(NCc2ccccc2-c2nnc(-c3ccccc3Cl)o2)cc1Cl	103	108
CCN(CC)CCNC(=O)C1CCCN(c2ncnc3onc(C)c23)C1 (stereo not given)	104	103
CC(=O)c1ccc(Oc2nc(C)nc3c2oc2ccccc23)cc1	101	105
Cc1ccc(S(=O)(=O)NCc2nc3cccnc3n2Cc2ccccc2Cl)c(C)c1	108	112
CC(=O)Nc1ccccc1-c1nc2ccccc2n(C(C)C(=O)Nc2ccccc2C(F)(F)F)c1=O (stereo not given)	110	112

# Carrying on.
Compound	Polio RdRp inh	Polio RdRp inh intensity
COc1cccc(CNC(=O)C2=C(C)C(=O)OC23CCCCCC3)c1	104	105
CC1=C(C(=O)Nc2cccnc2)C(c2ccc(Cl)cc2)n2nc(SCc3ccccc3)nc2N1 (stereo not given)	110	112
Cc1ccccc1C(=O)Nc1ccc2oc(-c3ccc(Cl)c(Cl)c3)nc2c1	105	110
CCn1ccc2cc(S(=O)(=O)N3CCC(C(=O)NCc4ccc(OC(C)C)cc4)CC3)ccc21	104	108
CC(C)(C)OC(=O)N1CCC(c2c(C(=O)N3CCN(c4ncccn4)CC3)cnn2-c2ccc(F)cc2F)CC1	101	99
CC(C)Oc1ccc(C(=O)N(Cc2ccc(N(C)C)cc2)C2CCS(=O)(=O)C2)cc1 (stereo not given)	105	103
COc1ccccc1CNC(=O)Cn1nc(C)c2nn(-c3ccc(Cl)cc3)c(C)c2c1=O	106	109
COc1ccc(OC)c(NC(=O)C2CCN(S(=O)(=O)c3ccc4c(c3)CC(C)N4C(C)=O)CC2)c1 (stereo not given)	104	111
COc1cccc(C2CC(=O)Nc3c2c(=O)[nH]c2nc4ccccc4n32)c1 (stereo not given)	103	99
Cc1ccc(-n2ncc(C(=O)N3CCN(C4CCCCC4)CC3)c2C2CCN(C(=O)OC(C)(C)C)CC2)cc1C	111	112
COc1ccc(-n2c(C)c(C(C)=O)c3cc(OC(=O)COc4ccccc4)ccc32)cc1	106	111
CN1CCN(C(=O)Cn2ncc3c4ccccc4n(Cc4ccc(F)cc4)c3c2=O)CC1	106	105
Cc1ccc(-c2nc3ccc(Br)cn3c2Nc2ccc3c(c2)OCO3)o1	108	109
CCn1cc(C(=O)N2CCN(c3ccccc3)CC2)c(=O)c2cc(S(=O)(=O)N3CCC(C)CC3)ccc21	107	111
CSc1ccc(CCNC(=O)c2ccc(-n3c(C)cc4c3CCCC4)cc2)cc1	115	112
O=C(Cn1c(=O)c2ccccc2n(CC(=O)Nc2ccc(F)cc2)c1=O)NCCc1ccccc1	105	103
O=C(CN1CCN(Cc2ccc(F)cc2Cl)S1(=O)=O)Nc1ccc(F)cc1	104	78
COc1ccc(S(=O)(=O)c2c(C(=O)c3ccc(C)c(C)c3)cnc3ccc(F)cc23)cc1	107	108
CCOCCCn1c(SCC(=O)NCc2ccccc2)nc2c(sc3ccccc32)c1=O	110	112
Cc1scc(CN2CCN(c3ccc(F)cc3)CC2)c1C	108	108

# The list continues:
Compound	Polio RdRp inh	Polio RdRp inh intensity
CCOc1ccc(C(=O)Nc2ccc3nc4c(c(Nc5ccccc5OC)c3c2)CCCC4)cc1	99	109
COc1cccc(-c2ccc3c(N)c(C(=O)Nc4ccccc4C)sc3n2)c1	102	115
CCCCn1cc(S(=O)(=O)c2ccc(OC)cc2)c(=O)c2cc(F)c(F)cc21	105	106
C=Cc1ccc(Cn2c(C(=O)OC)cc3sc(C)cc32)cc1	114	112
COc1ccc(CCNC(=O)c2cc3c(=O)n(C)c4ccccc4c3s2)cc1OC	101	102
COc1ccc(NC(=O)Cn2c(=O)n(Cc3ccc4c(c3)OCO4)c(=O)c3ccc(C(=O)NC4CCCCC4)cc32)cc1	104	106
COc1ccc(-c2onc(C)c2C)cc1S(=O)(=O)NC1CCC(C)CC1 (stereo not given)	105	102
CCc1ccc(S(=O)(=O)N(C(=O)c2ccncc2)c2ccc3oc(C)c(C(=O)OC)c3c2)cc1	100	103
COc1cccc(NS(=O)(=O)c2ccc3[nH]cc(C(=O)N4CCCCCC4)c(=O)c3c2)c1	107	100
CN(C1CCCCC1)S(=O)(=O)c1ccc(F)c(C(=O)Nc2ccc(C(F)(F)F)cc2)c1	112	105
CCOc1ccc(NC(=O)Cn2nc(Cc3ccncc3)c3ccccc3c2=O)cc1	105	105
CCOC(=O)c1ccc(NC(=O)CSc2nc(-c3cccs3)cc(C(F)(F)F)c2C#N)cc1	114	126
CCc1ccc2nc(N3CCC(C(=O)NCCC(C)C)CC3)sc2c1	106	107
Cc1ccc(CNC(=O)C2CCCN(c3nc4c(C)cc(C)cc4s3)C2)cc1 (stereo not given)	108	114
COc1ccc(CCNC(=O)C(=O)NCC(c2ccco2)S(=O)(=O)c2ccc(F)cc2)cc1 (stereo not given)	113	108
Cc1ccc(NC(=O)N2CCN(C(=O)c3nsc4ccccc34)CC2)cc1C	111	113
Cc1ccc(CNC(=O)c2cc3c(=O)n(Cc4cccnc4)ccc3nc2C)cc1	107	107
CCN(C(=O)c1cc2c(=O)oc3ccc(C)cc3c2s1)c1ccccc1F	103	110
COc1ccc(CNC(=O)CCCc2nnc3n(C(C)C)c(=O)c4sccc4n23)cc1	107	111
COc1ccc(NC(=O)CCNS(=O)(=O)c2cccc3nsnc23)cc1Cl	104	106

# Following part
Compound	Polio RdRp inh	Polio RdRp inh intensity
O=C(NC1CC(=O)N(c2ccc(F)cc2)C1)c1cccs1 (stereo not given)	109	109
CC(C)C(=O)Nc1nnc(SCc2cc(=O)n3ccccc3n2)s1	98	97
Cc1c(S(=O)(=O)c2cccc(Cl)c2)nnn1-c1cccc(C(F)(F)F)c1	103	109
CCC(=O)N1c2ccccc2CC1C(=O)NCCc1ccccc1C (stereo not given)	98	100
CCCN(C(=O)Cn1cc(S(=O)(=O)N2CCN(c3ccccc3F)CC2)c2ccccc2c1=O)c1cccc(C)c1	113	115
CCc1ccc(C2CC(=O)N(c3cccc(C(F)(F)F)c3)C3=C2C(=O)OC3)cc1 (stereo not given)	105	107
CCOC(=O)N1CCN(Cc2nc3cc(NC(=O)c4ccc([N+](=O)[O-])cc4)ccc3n2C(C)C)CC1	110	108
O=C(Nc1cc(-c2nc3cc(Cl)ccc3o2)ccc1Cl)c1cccc2ccccc12	106	109
CCc1ccc(NC(=O)Cn2c(=O)c(CNc3ccccc3)cc3cc(OC)c(OC)cc32)cc1	98	113
CCNC(=O)Cn1nc(C)n2c(cc3c(OC)cccc32)c1=O	106	110

# Screening data: PubChem BioAssay, ICCB-Longwood Screening Facility, Harvard Medical School
